# Bioassay records: PubChem BioAssay, ICCB-Longwood Screening Facility, Harvard Medical School
# S aureus helic: S. aureus DNA helicase inhibition; purified S. aureus helicase, fluorescence unwinding assay; about half of the hits fall short of the stated cut; inhibition, %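 (tested at about 80 µM)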; 120,000 tested, 0.05% active;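 active means both duplicates at 50% or more, or one of them with a favoured structure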;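 further: 0% = mean of negative control wells and 100% = mean of positive control wells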
# MgrA DNA FP: S. aureus MgrA-DNA binding modulation | fluorescence polarization | inhibition, %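 (about 10 µg/mL by stock and volumes)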 | 84,000 tested, 0.13% active;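 active means above 50% in either of two replicates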;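 further: 0% = protein plus DNA without compound and 100% = DNA alone without protein; higher means less MgrA bound to DNA so lower polarization; one replicate is shown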
# * marks the source's active call; other numbers are inactive results; / = not tested or not shown.
SMILES,S aureus helic,MgrA DNA FP
CC(=O)Nc1c(I)c(C(=O)NC2[C@H](O)OC(CO)[C@@H](O)[C@H]2O)c(I)c(N(C)C(C)=O)c1I (stereo partly specified),/,-4.9
O=C(O)COCC1CCCCO1 (stereo unspecified),-3.0,-8.8
CCN1C(=O)/C(=C/c2cn(CCC#N)nc2-c2ccc(F)cc2)SC1=S,-18.0,/
CC1(C)Nc2ccccc2NC1=O,24.0,/
CCN(CC)c1ccc2c(c1)CCCN2,8.0,/
CCCn1c(=N)n(CC(O)c2ccccc2)c2ccccc21 (stereo unspecified),11.0,0.8
COc1cccc(N2CC(=O)N(NC(=O)NC3CCCCC3)CC2=O)c1,21.0,/
Cc1cc(OCCON2C(=O)CCC2=O)c(C)cc1Cl,18.0,-0.7
OCCn1nnnc1-c1ccccc1,1.0,-4.3
CCN(CC)CCCNc1nnc(C)c(=O)[nH]1,19.0,-2.6
COCc1nc(-c2ccccn2)[nH]c(=O)c1CC1CC1,/,2.9
CN(C)CCNC(=O)c1cc2c(s1)-c1ccc(Cl)cc1SC2,17.0,6.7
O=S(=O)(NC(=S)Nc1ccc(Cl)c(Cl)c1)c1ccccc1,/,3.4
c1ccc(-n2nnnc2Sc2nnc3n2CCCCC3)cc1,6.0,/
N#C/C(=C\c1cccs1)c1ccccn1,/,-1.0
Clc1nc2ccccc2cc1C=NCc1ccco1,-1.0,/
CCC(CC)NCc1ccc(OC)c(C)c1OC,11.0,-3.0
O=S(=O)(CC(O)COc1ccc(Br)cc1)c1ccccc1 (stereo unspecified),6.0,/
CN1CCN(c2ccc(Cl)cc2NC(=S)Nc2cccnc2)CC1,4.0,/
COc1ccc(S(=O)(=O)N(C)CC(=O)NCc2ccccc2)cc1OC,4.0,-0.3
O=c1c2c(-c3cccs3)csc2nc(CN2CCOCC2)n1Cc1ncc(-c2ccccc2)o1,-4.0,/
Cc1ccc(CNCc2ccccc2)o1,-6.0,-2.6
C=CCN1Cc2ccc(C(=O)O)cc2C1,2.0,/
CC(/C=C/c1ccccc1)=N\NC(N)=S,19.0,2.8
COc1nc2ccccc2nc1CCC(=O)Nc1ccccc1,-18.0,0.5
CCC(=O)N=c1sc2ccccc2n1CC(=O)OC,1.0,/
Cc1cc(C)nc(N(C#N)CCOc2ccc(Cl)cc2)n1,0.0,1.1
CCOc1ccc(N/C=C(\C#N)c2nc3ccccc3[nH]2)cc1,-3.0,-3.2
CC(=O)NC1(C(=O)NC2CCCC2)CCCCC1,12.0,0.8
O=C(COC(=O)c1cc(=O)c2ccccc2o1)Nc1ccc(S(=O)(=O)N2CCCC2)cc1,11.0,/
O=C1C=CC(=O)N1C1CC1,-2.0,/
CN(C)/C=C(\C#N)C(=O)Nc1ccccc1,25.0,/
CCCCc1nnc(NC(=O)CN2C(=O)c3ccccc3C2=O)s1,4.0,-0.5
Cc1ccsc1C1CC(=O)Nc2ccccc2S1 (stereo unspecified),/,-3.3
CCc1ccc(C(=O)NCc2nnc(SC)n2C)cc1,-6.0,-1.9
Cc1nnc(SCc2ccccc2F)n1C(C)C,2.0,-2.6
COc1cc(C)cc2oc(=O)cc(-c3ccccc3)c12,7.0,/
Cc1cccc(N2CCN(C(=O)CN3C(=O)CCSc4ccccc43)CC2C)c1 (stereo unspecified),2.0,8.9
Cc1cccc(C(=O)OCCN2C(=O)c3ccccc3C2=O)c1,8.0,/
Cc1ccc(S(=O)(=O)N=S(c2ccccc2)c2ccccc2)cc1,0.0,-12.1
O=C(COC(=O)c1ccccc1C(=O)c1ccccc1)NC1CCCCC1,23.0,-0.7
O=C(Nc1ccc(N2CCCCC2)cc1)C1COc2ccccc2O1 (stereo unspecified),-5.0,/
CCn1ncc(C2=NOC(C(=O)N3CCC(C(N)=O)CC3)C2)c1C (stereo unspecified),17.0,-1.9
CCOC(=O)Cc1cc(=O)[nH]c(Nc2nc3ccccc3o2)n1,2.0,6.7
O=c1cc[nH]n1-c1cccc(Cl)n1,/,-1.5
COc1ccc(Cc2nc3c4cnn(-c5c(F)c(F)cc(F)c5F)c4ncn3n2)cc1OC,-3.0,1.4
O=C(c1ccc(Cl)cc1)c1cnc2n1CCC2,-10.0,/
Cc1ccc(-c2n[nH]c3c2C(c2ccccc2)NC3=O)cc1 (stereo unspecified),13.0,3.0
COc1ccc(Cc2nn3c(C)nnc3s2)cc1,-19.0,/
CCCN1C(=O)C2(Nc3ccccc3-c3nc4ccccc4n32)c2ccccc21 (stereo unspecified),5.0,0.7
CCOC(=O)c1[nH]c(=O)[nH]c1CC1C(=O)CC(C)(C)CC1=O,14.0,0.2
Cc1ccc(-c2ccc(/C=C3/SC(=S)N(C)C3=O)o2)cc1Cl,-13.0,0.0
CCc1nnc(SC(CC)C(=O)NCc2ccc(C)cc2)c2cc3sccc3n12 (stereo unspecified),2.0,2.1
CN(C1CC(C)(C)NC(C)(C)C1)S(=O)(=O)CC12CCC(CC1=O)C2(C)C (stereo unspecified),13.0,/
FC(F)(F)c1cccc2c1[nH]c1nc3ccccc3nc12,1.0,1.6
CN(C(=O)c1ccccc1C(=O)N(C)C1CCS(=O)(=O)C1)C1CCS(=O)(=O)C1 (stereo unspecified),-2.0,0.6
CN(C(=O)CSc1n[nH]c(N)n1)c1ccccc1,-7.0,/
CCN(C(C)=O)c1nc(COC(=O)c2ccc3c(c2)OCCO3)cs1,6.0,/
COc1ccc2[nH]c(C(=O)N3CCCN(Cc4ccc(F)cc4)CC3)cc2c1,-20.0,/
COc1ccc(/C=C2/N=C3SC(C)C(=O)N3C2=O)cc1 (stereo unspecified),/,-1.4
# New compounds follow
SMILES,S aureus helic,MgrA DNA FP
O=S(=O)(c1cccc2cccnc12)N1CCc2ccccc2C1,20.0,/
Cc1sc2ncnc(N3CCC(C)CC3)c2c1C,4.0,-1.9
N#Cc1ccccc1C[N+]1=C(N)c2ccccc2C1,-5.0,/
O=C(OCc1ccccn1)c1ccc(COc2ccccc2Cl)o1,15.0,-2.8
Cc1nn(C)cc1S(=O)(=O)N1CCN(c2ccccn2)CC1,6.0,-1.2
CC1Cc2ccccc2N1C(=O)Cn1c(=O)oc2ccccc21 (stereo unspecified),10.0,/
CC(C)(C)OC(=O)CSc1nnc(Cc2cccc3ccccc23)n1N,-2.0,/
Cc1cccc2c1N(C(=S)Nc1cccc(Cl)c1)CCC2,/,1.3
CCC1CCCCN1C(=O)CSc1c2c(nc3ccccc13)CCC2 (stereo unspecified),8.0,/
Cc1ccc(-c2csc3ncnc(N4CCNCC4)c23)cc1,/,-1.0
O=C(CCN1CCOCC1)NN=C1C2CC3CC(C2)CC1C3,-8.0,/
O=S(=O)(NC1CCCCC1)c1ccc(S(=O)(=O)N2CCN3CCCC3C2)cc1 (stereo unspecified),1.0,0.1
COc1ccccc1N1CCN(CCCNC(=O)c2nn(C)c3c2COc2ccccc2-3)CC1,-11.0,/
Cc1ccc2cc(CCNC(=O)CCc3ccccc3)c(=O)[nH]c2c1C,-21.0,/
O=C1CC(c2cccc(O)c2)Oc2ccccc21 (stereo unspecified),6.0,-1.5
COc1ccc2[nH]c(C)c(CCNCC(C)Cc3ccc4c(c3)OCO4)c2c1 (stereo unspecified),19.0,/
CCN(CC)c1nc(Nc2ccc(Cl)cc2)nc(N(CC)CC)n1,0.0,1.1
CC1=NN(c2cccc(Cl)c2)C(=O)/C1=C/c1ccc(O)cc1,/,-2.6
COCCCN1C(=O)CSC1c1cn(-c2ccccc2)nc1-c1cccs1 (stereo unspecified),-9.0,/
CCN(/C=N/c1ncc(-c2ccc(Br)cc2)s1)CC,-23.0,/
COc1cc(C#N)ccc1OCc1nc(-c2ccc(Cl)cc2)no1,0.0,-2.1
COC(=O)C(Cc1ccccc1)NC(=O)c1nn(C)c(=O)c2ccccc12 (stereo unspecified),-2.0,/
O=C(CSc1c[nH]c2ccccc12)N1CCCCC1,-6.0,/
CC(=O)Nc1ccc(NC(=O)c2cccc(Cl)c2)c(C)c1,/,-2.0

# Three compounds out of the list above, ordered by the value under S aureus helic, falling.
SMILES,S aureus helic,MgrA DNA FP
COc1ccc2[nH]c(C)c(CCNCC(C)Cc3ccc4c(c3)OCO4)c2c1 (stereo unspecified),19.0,/
O=C1CC(c2cccc(O)c2)Oc2ccccc21 (stereo unspecified),6.0,-1.5
COC(=O)C(Cc1ccccc1)NC(=O)c1nn(C)c(=O)c2ccccc12 (stereo unspecified),-2.0,/

# (list continues)
SMILES,S aureus helic,MgrA DNA FP
O=C(Nc1ccccc1)OCc1cccc(COC(=O)Nc2ccccc2)c1F,/,0.9
CC(C)(C)OC(=O)N1CCN(C(=O)c2cccs2)CC1,/,-2.6
CCN1CCN(CC(O)COCc2ccccc2)CC1 (stereo unspecified),1.0,-1.8
CC(=O)N/C(=C\c1ccccc1)C(=O)Nc1ccc(O)cc1,2.0,0.7
CCCNC(=O)c1ccccc1SC,-17.0,1.4
CC(C)C(=O)Oc1ccc2c(c1)oc(=O)c1ccccc12,7.0,2.4
CNC(=O)CSc1nnc(-c2ccc3c(c2)OCO3)n1-c1ccccc1,10.0,/
CCCCCc1c(O)nc(SCCN(CC)CC)n(C(=O)c2ccccc2)c1=O,-34.0,/
O=C(C(c1ccccc1)c1ccccc1)N1CCN(c2ccccn2)CC1,1.0,-4.0
NC(=O)C1CCN(CC(=O)NCc2ccc3c(c2)OCO3)CC1,19.0,/
CN(C)c1cnn(-c2ccccc2)c(=O)c1Cl,-6.0,1.6
O=C(C1CCCCC1)N1CCN(c2cc(C(F)(F)F)nc3ccccc23)CC1,/,1.3
COc1cc2c(=O)oc(-c3c(-c4c(F)cccc4Cl)noc3C)nc2c(OC)c1OC,/,-10.1
CC(C)NC(=O)c1c(Cl)nc2sccn12,4.0,1.4
CCOC(=O)c1cnc2c(C#N)c(C)nn2c1C,-1.0,0.4
CC(C)(C)c1ccc(S(=O)(=O)N2CCCCC2C(=O)O)cc1 (stereo unspecified),13.0,/
O=c1oc2cc(OCc3ccccc3)ccc2cc1-c1ccccn1,-7.0,/
O=C(C(Cc1ccccc1Cl)C(=O)N1CCc2ccccc21)N1CCc2ccccc21,/,-0.2
NC(=S)c1sccc1Br,/,0.5
CN1CCc2c(nnn2-c2ccccc2)C1,4.0,/
Cc1cccc(NC(=O)CN2CCC(C)CC2)c1C,-4.0,/
CN(C)c1nc(F)c(F)c(S(=O)(=O)c2ccccc2)c1F,6.0,-0.5
O=C(CCCN1C(=O)/C(=C/C=C/c2ccccc2)SC1=S)Nc1cccc(F)c1,-9.0,/
O=C(c1cc2cc(Br)ccc2oc1=O)N1CCSC1c1ccc(Cl)cc1 (stereo unspecified),/,1.7
Cc1cc(C)n2nc(SCc3nc(N)nc(Nc4ccccc4C)n3)nc2n1,5.0,/
Cc1ccc(CSc2nc3ccccc3s2)cc1,-3.0,0.0
CCNc1nc(N(C#N)CC)nc(N2CCOCC2)n1,-7.0,0.7
Cc1ccc2[nH]c3c(c2c1)SC(C)(C)CC3=O,31.0,/
CCOc1ccc(NC(=O)C2CCN(S(=O)(=O)CC)CC2)cc1,21.0,-0.1
Cc1ccc(C2CC(=O)n3nc(N)nc3N2)cc1 (stereo unspecified),3.0,0.3
COc1ccc2c(c1)c1nc(C)sc1n2CCN1CCOCC1,2.0,3.9
O=C(COc1ccccc1)n1cc(Br)cn1,11.0,-2.7
O=C(Cc1cccs1)Oc1ccc2oc3ccccc3c2c1,-8.0,/
Nc1cc(=O)[nH]c(SCc2ccccc2)n1,8.0,/
CC(=O)Nc1ccc(OC(=O)c2cccc(C(F)(F)F)n2)cc1,/,-0.1
Cc1ccc(NC(=O)CSc2nc3c(c(=O)n2Cc2ccccc2)SCC3)cc1,9.0,1.6

# Seven entries already listed, arranged by length of the SMILES, smallest number first.
SMILES,S aureus helic,MgrA DNA FP
O=C(COc1ccccc1)n1cc(Br)cn1,11.0,-2.7
Nc1cc(=O)[nH]c(SCc2ccccc2)n1,8.0,/
CCNc1nc(N(C#N)CC)nc(N2CCOCC2)n1,-7.0,0.7
Cc1ccc2[nH]c3c(c2c1)SC(C)(C)CC3=O,31.0,/
CC(=O)Nc1ccc(OC(=O)c2cccc(C(F)(F)F)n2)cc1,/,-0.1
Cc1cc(C)n2nc(SCc3nc(N)nc(Nc4ccccc4C)n3)nc2n1,5.0,/
Cc1ccc(NC(=O)CSc2nc3c(c(=O)n2Cc2ccccc2)SCC3)cc1,9.0,1.6

# Additional entries
SMILES,S aureus helic,MgrA DNA FP
CCOC(=O)c1cccc(C(=O)Nc2cccc(NC(=O)c3cccc(C(=O)OCC)n3)n2)n1,-6.0,/
COc1cc(C)c(S(=O)(=O)Nc2cccc(-c3ccc(N4CCOCC4)nn3)c2)cc1C,18.0,/
Cc1oc2ncnc(N3CCOCC3)c2c1C(=O)NCC1CCCO1 (stereo unspecified),-22.0,/
CN(Cc1ccccc1)S(=O)(=O)c1ccc2c3c(cccc13)C(=O)N2,5.0,3.2
Cc1cn[nH]c1/N=C/C1=C(O)c2ccccc2C1=O,/,-1.1
CN(C)c1nc(N(C)C)nc(N(C#N)S(=O)(=O)c2ccccc2Cl)n1,7.0,-0.8
CCCN1CCC(NC(=S)NC2CCCC2)CC1,23.0,-1.6
O=S(=O)(N1CCCCC1)N(CCO)Cc1ccccc1,4.0,/
O=C(COC(=O)c1cccc(O)c1)c1ccc(F)cc1,1.0,/
CCOC(=O)c1cc(-c2ccc(OC)c(S(=O)(=O)N3CC(C)CSc4ccccc43)c2)on1 (stereo unspecified),-17.0,/
CC(NC(=O)c1ccc(-n2ccc3ccccc32)s1)c1ccc2c(c1)OCCO2 (stereo unspecified),8.0,/
O=c1[nH]c2ccc(Cl)cc2c(-c2ccccc2)c1N1CCOCC1,2.0,-0.1
Cc1nn(CC(=O)N(C)C)c(=O)c2ccccc12,5.0,/
C#CCOC(=O)Nc1ccccc1OC,-6.0,/
CCOC(=O)c1cnc(Sc2ccc(F)c(Cl)c2)nc1C(F)(F)F,/,5.6
COc1cc(OC)cc(C(=O)c2coc3ccc(O)c(CN4CCOCC4)c23)c1,-4.0,-0.6
Cc1ccc2c(CC(=O)O)coc2c1C,-19.0,/
Cc1ccc2c(c1)-c1onc(C(=O)NC3CCCc4ccccc43)c1CO2 (stereo unspecified),3.0,0.6

# This is a subset (hit frequency here may not be typical).
